VDR inh – inhibitors of human vitamin D receptor; P11473; VDR-SRC2-3 peptide fluorescence polarization, 2 h; Potency, µM, for inactives: max response, negative = inhibition, actives largely listed as inhibitors; 400,000 tested, 0.93% active; AID 504847; active = well fitted inhibition curve with a large enough effect; inconclusive = small, poorly fitted or top-dose-only effect, or another doubt; inactive = no such curve, though single readings can be large or run the other way; also: series mostly up to about 120 µM
Target sequence (P11473 whole entry, looked up): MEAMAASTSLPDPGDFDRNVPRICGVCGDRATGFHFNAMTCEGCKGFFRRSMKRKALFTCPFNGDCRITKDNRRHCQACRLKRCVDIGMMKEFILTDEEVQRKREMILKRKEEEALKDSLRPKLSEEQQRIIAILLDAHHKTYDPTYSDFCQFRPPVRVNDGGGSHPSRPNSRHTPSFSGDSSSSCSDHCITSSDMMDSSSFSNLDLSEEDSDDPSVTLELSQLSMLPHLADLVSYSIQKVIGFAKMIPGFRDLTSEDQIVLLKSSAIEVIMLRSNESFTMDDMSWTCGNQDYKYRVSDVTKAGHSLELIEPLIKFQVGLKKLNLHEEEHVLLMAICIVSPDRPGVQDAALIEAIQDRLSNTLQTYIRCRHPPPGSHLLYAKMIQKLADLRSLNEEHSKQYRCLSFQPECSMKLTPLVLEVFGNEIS
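Fluorescence polarization assay measuring small-molecule disruption of VDR binding to the coregulator peptide SRC2-3. Compounds were pin-transferred (23 nl) into the reagent mix and incubated 2 h at room temperature before reading.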
* marks the source's active call; other numbers are inactive results; ? = inconclusive; & = joins results of further samples. % is scaled to controls: 0 for no effect and ±100 for the full control effect; potency is read from the fitted curve at half-maximal effect. The list is partial. The share of hits here may be higher or lower than overall.

molecule	VDR inh
CC(C)(Cc1cc(CC(C)(C)C(=O)O)cc(C(C)(C)C)c1)C(=O)O	-5%
O=C(CBr)N1CCc2ccccc2C(c2ccccc2)C1 (centres undefined)	2%
CCCC(C(=O)NNC(=O)c1cc(C)oc1C)c1ccccc1 (centres undefined)	-1%
NS(=O)(=O)c1ccc(CCNC(=O)CSc2ccc([N+](=O)[O-])cc2)cc1	3%
COc1ccc2cc3cc(C(=O)NCCCN4CCc5ccccc5C4)sc3nc2c1	1%
CC1(C)CC(=O)c2cc(C(=O)NCc3ccco3)c(=O)n(-c3ccc(Cl)cc3)c2C1	-26%
CC(C)Cn1c(-c2cccs2)nc2ccccc21	19%
CCCNC(=O)C(=O)NCc1ccccn1	4%
COc1ccc(C(CC(=O)N2CCN(c3ccccc3)CC2)c2c(O)cc(OC)cc2OC)cc1 (centres undefined)	4%&-4%
COc1ccc(/C=N/Nc2nnc(Cc3ccccc3)c(=O)[nH]2)cc1OC	-3%
O=C(Nc1ccc(F)cc1F)c1ccc2ncsc2c1	-9%
N#Cc1ccc(CSc2nnc(-c3ccccn3)n2-c2ccccc2)cc1	-1%
Cc1cccc(-c2nc(CCNC(=O)c3ccco3)cs2)c1	9%
Cn1c(SCc2c(F)cccc2Cl)nc2c(c1=O)SCC2	-1%
CNc1cccnc1C=NNC(N)=S	-21%
CC(=O)Nc1ccc(NC(=O)C(Cc2ccccc2)N2Cc3ccccc3C2=O)cc1 (centres undefined)	12%
CC1(C)CC(=O)C2=C(C1)Nc1ccccc1NC2c1cccs1 (centres undefined)	5%
C=CC(=O)Nc1cccc(CN2C(=O)N(c3cc(OC)cc(OC)c3)Cc3cnc(NCCCCN(CC)CC)nc32)c1	1%
O=S(=O)(Cc1ccccc1)Nc1cccc(Br)c1	-11%
CC(NC(=O)COC(=O)c1ccc2c(c1)OCCO2)c1ccccc1 (centres undefined)	-9%

Continued.
molecule	VDR inh
CC1=NN(c2ccc(Cl)c(C(=O)O)c2)C(=O)/C1=C\c1ccc(-c2ccc(C(=O)O)cc2)o1	-30%
O=c1c2ccccc2nc(SCCN2CCCCC2)n1CCc1ccccc1	-2%
O=C(CSC1=Nc2ccccc2N=C(c2ccc(F)cc2)C1)NCc1ccc(Cl)cc1	8%
O=C(N/N=C/C(c1ccccc1)c1ccccc1)c1ccccc1F	7%
CCn1c(=O)cc(OCC(=O)N2CCCC2)c2ccccc21	-11%
CCc1cccc(CC)c1NC(=S)Nc1ccc2cn[nH]c2c1	-11%
Nc1nc2sc3c(c2cc1C(=O)NCC(=O)O)CCCC3	-11%
CC(=O)N(CCOc1ccccc1)CCOc1ccccc1	-4%
N#Cc1ccccc1S(=O)(=O)N1CCN(C(=O)Cc2n[nH]c(=O)c3ccccc23)CC1	14%
Cc1cc(C)c2nc(SC(C)C#N)cc(C)c2c1 (centres undefined)	10%
CCN(CC)C(=O)COc1coc(CN2CCN(c3ccc(F)cc3)CC2)cc1=O	13%
O=C(Nc1cccc(O)c1)c1cnn2cccnc12	7%
COc1cccc(CCN2CCC(CNS(=O)(=O)c3cc(-c4cc(C)no4)ccc3C)CC2)c1	-7%
CCN(C(=O)Cc1c(C(=O)O)[nH]c2ccccc12)c1cc(OC)ccc1OC	-15%
Cc1ccc(C(=O)NCCN2C3=NC[C@@H](Cc4ccccc4)N3C[C@H]2Cc2ccc(O)cc2)cc1Br	9%
CC(=O)Nc1ccc(SCC(=O)Nc2ccccc2N2CCOCC2)cc1	-1%
Cc1c(Cc2ccccc2)c(=O)oc2c(C)c(OCC(=O)N3CCC(C(=O)O)CC3)ccc12	-10%
C[C@H]1COC(=O)[C@@H](Cc2ccc(F)cc2)CC/C=C\C[C@H](CC(=O)NCCO)C(=O)N1	2%
O=C(NCCCNC(=O)c1ccc(Cl)cc1Cl)c1ccco1	0%
CC(C)(O)CNC(=O)Nc1ccc(Cl)c(Cl)c1	5%

Filtered by structure, the entries above containing a cyano group.
molecule	VDR inh
N#Cc1ccc(CSc2nnc(-c3ccccn3)n2-c2ccccc2)cc1	-1%
N#Cc1ccccc1S(=O)(=O)N1CCN(C(=O)Cc2n[nH]c(=O)c3ccccc23)CC1	14%
Cc1cc(C)c2nc(SC(C)C#N)cc(C)c2c1 (centres undefined)	10%

The listing continues.
molecule	VDR inh
C/C(O)=C\c1nc(=O)c2c(C)cc(C)nc2n1-c1ccccc1	7%
O=c1c(Oc2ccccc2F)coc2cc(OCc3cnn(-c4ccccc4)c3)ccc12	-7%
CC1CC(C)(C)N2C(=O)C3(Nc4ccccc4S3)c3cccc1c32 (centres undefined)	5%
CCc1ccc(Nc2nnc(SCC(=O)Nc3ccc(C(=O)O)cc3)s2)cc1	0%
Clc1ccc(COn2nnc3ccccc32)c(Cl)c1	-17%
COc1ccc(/C=C(\NC(=O)c2ccc(OCC(C)C)cc2)C(=O)OCc2ccco2)cc1	-11%
CN(C)c1cccc(C(=O)N(C)C2CCCN(Cc3ccccc3F)C2)c1 (centres undefined)	-6%
CC(C)C[C@H](NC(=O)c1nc[nH]c1C(=O)N1CCN(C(=O)OC(C)(C)C)CC1)C(=O)OC(C)(C)C	-4%
Cc1nc2c(sc(=S)n2Cc2ccco2)c(=O)n1CC(=O)Nc1cc(F)ccc1F	5%
COc1ccc(OC)c(/C=C2/Sc3ccccc3C2=O)c1	8%
C=CCn1c(COc2ccccc2)nnc1SCC(=O)Nc1ccc(S(N)(=O)=O)cc1	19%
COc1ccc(-c2nnc(SCC(=O)Nc3c(Cl)cc(Cl)cc3C(=O)O)o2)cc1	4%
O=C(NCCCN1CCN(c2ccccc2)CC1)C1CCCN(c2ncnc3c2nc2n3CCCCC2)C1 (centres undefined)	-17%
Cc1ccc2cc(CCNC(=O)CC(C)C)c(=O)[nH]c2c1	-14%
O=C(Nc1ccc(N2CCCC2)cc1)c1cccc(F)c1	-4%
Cc1ccc(CNS(=O)(=O)c2ccc(C(=O)N(C)C)s2)cc1	9%
O=C(CSc1nnc(NCc2ccccc2)s1)c1ccco1	-5%
Cn1ncc2cc(NC(N)=S)ccc21	1%
O=c1[nH]c2ccccc2n1Cc1ccc(F)cc1	7%
CCC[C@@H](OS(N)(=O)=O)[C@@H](Cc1ccccc1)C(=O)OCC	-11%

Additional results.
molecule	VDR inh
CCN(CCNC(=O)c1ccc2nc(-c3ccccc3NC(C)=O)c(=O)[nH]c2c1)c1ccccc1	11%
O=C(NCCCn1ccnc1)c1cc2c(s1)CCCC2	-6%
COc1ccc2nc(SCC(=O)N3CCCCCC3)c(C#N)cc2c1	9%
COc1ccc(NS(=O)(=O)NC(=O)c2cn(C)c3ccccc23)cc1	8%
CC(C)CC(=O)Nc1ccccc1-c1nnn(CC(=O)N2CCc3ccccc3C2)n1	20%
COc1ccc(N(Cc2cc3cc(OC)ccc3[nH]c2=O)C(=O)c2cccnc2)cc1	10%
O=C(CN1CCN(c2ccccn2)CC1)Nc1ccc(Cl)c(C(F)(F)F)c1	17%
O=C(/C=C/c1ccccc1)NCC(=O)N/N=C/c1ccccc1[N+](=O)[O-]	-5%
C=C1C[C@H](OC(=O)C(C)(O)CCl)C2C(=C)C(=O)O[C@@H]2C2C1C[C@H](O)[C@]2(O)CCl (some centres undefined)	?
O=C(O)CCc1ccc(-c2cccs2)n1NC(=O)c1cccs1	14%
COc1cccc(C(=O)NCc2nnc(SCC(=O)Nc3nccs3)n2-c2cccc(C)c2)c1	-18%
CSCCC(NS(=O)(=O)c1ccccc1F)C(=O)N1CCCCCC1 (centres undefined)	14%
Cc1cc2ccccc2c(=O)n1CC(=O)NCC(=O)N1CCCC1	3%
Cc1ccc2c(c1)N(CC(=O)N(Cc1ccccn1)Cc1ccco1)C(=O)C(C(C)C)O2 (centres undefined)	-3%
Cc1ccc(C)c(N2CCN(C(=O)CCS(=O)(=O)c3cc(Br)cc4c3N(C(=O)C3CC3)CC4)CC2)c1	8%
COC(=O)C1C(c2ccccc2)C(C(=O)OCc2ccco2)C1c1ccccc1 (centres undefined)	-5%
COc1ccc(-c2nnc(SCC(=O)N3CCCC3)o2)cc1OC	24%
Cc1ccc(NC(=O)CCNS(=O)(=O)c2ccccc2F)cc1S(=O)(=O)N1CCOCC1	11%
Cc1cc(=O)[nH]c(SCn2nnc3ccccc3c2=O)n1	6%
CC(C)C(=O)Nc1ccnc(-c2cccnc2)n1	11%

Pulled by structure from above, 2 records:
molecule	VDR inh
CC(C)C[C@H](NC(=O)c1nc[nH]c1C(=O)N1CCN(C(=O)OC(C)(C)C)CC1)C(=O)OC(C)(C)C	-4%
COc1cccc(CCN2CCC(CNS(=O)(=O)c3cc(-c4cc(C)no4)ccc3C)CC2)c1	-7%

Additional compounds follow:
mol | VDR inh
CCCCCCCCCCCCCCCCCC(=O)OCC(C)O (centres undefined) | -2%
COc1cc2nc(CN(C)Cc3nc4ccccc4c(=O)[nH]3)[nH]c(=O)c2cc1OC | 11%
CCS(=O)(=O)N1CCC(C(=O)N2CCOCC2)CC1 | -6%
Nc1ncnc2c1ncn2[C@@H]1O[C@H](CNCc2ccc(OCC(=O)Nc3nccs3)cc2)[C@@H](O)[C@H]1O | 10%
COc1cc(NC(=O)c2noc(C)c2[N+](=O)[O-])c(OC)cc1Cl | 2%
CCc1ccc(S(=O)(=O)c2cn(Cc3ccccc3)c3cc(F)c(F)cc3c2=O)cc1 | -9%
CCc1ccccc1N(C(C)=O)c1nc(CN=C=S)cs1 | 8%
O=C(CSc1nc2ccccc2s1)NC1CCS(=O)(=O)C1 (centres undefined) | -16%
CCc1ccc(CNC(=O)C2Cc3cc(S(=O)(=O)N4CCCC4)ccc3N2C(C)=O)cc1 (centres undefined) | -16%
CCc1cccc(NC(=O)CSc2ncc3c(n2)-c2ccccc2N(CC)S3(=O)=O)c1 | -3%
O=P(CCO)(c1ccccc1)c1ccccc1 | 4%
CN1CCN(Cc2nc3cc(NC(=O)COc4ccc([N+](=O)[O-])cc4)ccc3n2C)CC1 | -5%
O=[N+]([O-])c1ccc2c(c1)Nc1nc3ccccc3nc1N2 | 10%
CCOc1ncccc1C(=O)OCC(=O)N1c2ccccc2CC1C (centres undefined) | -4%
CC(C)CC1NC(=O)N(CCCCN2C(=O)c3ccccc3C2=O)C1=O (centres undefined) | -1%
Cc1c(Cl)cccc1NC(=O)CSc1nc(=O)n(Cc2ccncc2)c2c1CCC2 | 3%
CCCn1c2c(c(O)c(C(=O)Nc3ncccc3C)c1=O)CCCC2 | -11%
CCOC(=O)c1cc2n(c1C)-c1ccccc1C2=O | -9%
O=C(CN1CCC(O)(c2cccc(F)c2)CC1)NCCc1c[nH]c2ccccc12 | -4%
Cc1ccccc1C(=O)Nc1ccnn1C1CCN(C2CCSCC2)CC1 | -1%
CC1=C(C(=O)OCc2ccccc2)C(c2cccc([N+](=O)[O-])c2)NC(=O)N1CCCCCC(=O)O (centres undefined) | -13%
O=C(c1ccco1)N1CCN=C1SCc1c(F)cccc1Cl | 7%
CCCC1(C(=O)OCC)NC(c2ccc(N(C)C)cc2)C2C(=O)N(c3ccc(OCC)cc3)C(=O)C21 (centres undefined) | 1%
O=c1cccc(-c2ccccc2)[nH]1 | 4%
O=C(NC1CCCCCC1)c1cccc(N2CCCC2=O)c1 | 3%

The final 4 compounds of the section above open the next one:
mol | VDR inh
O=C(c1ccco1)N1CCN=C1SCc1c(F)cccc1Cl | 7%
CCCC1(C(=O)OCC)NC(c2ccc(N(C)C)cc2)C2C(=O)N(c3ccc(OCC)cc3)C(=O)C21 (centres undefined) | 1%
O=c1cccc(-c2ccccc2)[nH]1 | 4%
O=C(NC1CCCCCC1)c1cccc(N2CCCC2=O)c1 | 3%
Cc1ccc(N(C(=O)CNC(=O)c2ccco2)C(C(=O)NC2CCCC2)c2cccnc2)cc1 (centres undefined) | -19%
O=C(OCc1nnc(-c2ccccc2)o1)C1CCN(S(=O)(=O)c2cccs2)CC1 | 7%
CN(C)CCO[C@@H](c1ccc(Cl)cc1)c1ccccn1 | -4%&1%
CCCn1c(SCC(=O)N2c3ccccc3Sc3ccccc32)nc2c1c(=O)n(C)c(=O)n2C | -8%
CCN(CC)C(=O)c1scc2c1OCCO2 | 0%
CCn1cc(C2=NOC(C(=O)Nc3cc(OC)c(Cl)cc3OC)C2)c(C)n1 (centres undefined) | -4%
Cc1nc(NC(=O)C2CC2)sc1C(=O)N1CCCCC1 | 12%
Cc1oncc1C(=S)Nc1ccccc1 | -4%
COc1ccc(C2CC(c3ccncc3)=NN2c2ccc(S(N)(=O)=O)cc2)cc1 (centres undefined) | -24%
COc1cc(NC(=O)c2ccccc2Cl)ccc1NC(=O)c1cccs1 | -10%
Cn1c(N)c(C(=O)c2ccc(Oc3ccccc3)cc2)c(=O)n(C)c1=O | -14%
Clc1ccc(CCNc2nc3ccccc3c3nc(-c4ccccc4)nn23)cc1 | ?
Cc1ccc(OCCC(=O)Nc2ccc3c(c2)OCO3)cc1 | -5%
CNS(=O)(=O)c1cnccc1N1CCN(C)CC1 | -12%
Cc1cccn2c(=O)c(/C=C(\C#N)C(=O)NC3CCS(=O)(=O)C3)c(N3CCC(C(N)=O)CC3)nc12 (centres undefined) | -13%
O=C(NCCn1cc(SCc2ccccc2F)c2ccccc21)c1c(F)cccc1F | -7%
COc1ccc(NC(=O)c2cccc(S(=O)(=O)N3CCCCCC3)c2)cc1 | 11%
COc1ccc(OC)c(C(c2nnnn2C2CCCC2)N2CCc3ccccc3C2)c1 (centres undefined) | -2%
CCCC(=O)Nc1ccc(C(=O)NN=C(C2CC2)C2CC2)cc1 | -17%
CCOC(=O)N1CCN(C(=O)c2ccc(OC(C)=O)cc2)CC1 | 10%
COc1ccc(C(=O)CC(CC(=O)c2ccc(OC)cc2)C(=O)O)cc1 | 2%
COC(=O)C1=C(C)N(c2ccc(F)c(Cl)c2)C(=O)C1 | -2%
CC1=NN(c2ccc(C)cc2C)C(=O)C1C(c1cccc(O)c1)C1C(=O)N(c2ccc(C)cc2C)N=C1C (centres undefined) | ?

Assay outcomes: PubChem, National Center for Advancing Translational Sciences (NCATS)
